Screening data (PubChem BioAssay)
StopGo FLuc – lowers the firefly signal of an FMDV 2A StopGo reporter; HEK cells with a luciferase reporter of 2A StopGo recoding; Potency, µM (top dose mostly 57.5 µM), without a hit: top-dose signal change, negative = less light; 120,000 compounds, 0.23% hits; AID 1745856; active = well fitted falling curve with a large enough effect; inconclusive = small, poorly fitted or top-dose-only effect; inactive = no such curve, though single readings can be large or run the other way; also: nearly all actives have a fitted effect of over 60% in size; overnight with compound
StopGo RLuc – lowers the Renilla signal of an FMDV 2A StopGo reporter. HEK cells with a luciferase reporter of 2A StopGo recoding. AID 1745857. 120,000 compounds, 0.32% hits. Potency, µM (top dose mostly 57.5 µM), for inactives: at the highest dose signal change, negative = less light; active means well fitted falling curve with a large enough effect; inconclusive means small, poorly fitted or top-dose-only effect; inactive means no such curve, though single readings can be large or run the other way; also: nearly all actives have a fitted effect of over 55% in size; overnight with compound
The depositor's hits bear a star; ? = inconclusive; & = joins results of further samples; [ ] = another dose, or the depositor's remark. % is scaled to controls: 0 for no effect and ±100 for the full control effect; potency is read from the fitted curve at half-maximal effect.

Value order – StopGo FLuc | StopGo RLuc
Fc1ccc(Nc2c(-c3ccccn3)nc3ccc(Cl)cn23)cc1
 : 3% | -18%
O=C(COc1ccccc1)Nc1ccc(C(=O)OCc2cc(=O)n3nc(C4CC4)sc3n2)cc1
 : -17% | 1%
COc1ccccc1N1CCN(C(=O)CSc2nnc3c(=O)n(-c4cccc(F)c4)ccn23)CC1
 : -20% | -22%
CCc1cc(=O)oc2cc(OC(C)C(=O)NCc3cccnc3)c(Cl)cc12 (stereo not given)
 : 0% | -3%
COCCn1cc(C(=O)NCCc2ccccc2OC)ccc1=O
 : 0% | -8%
COc1ccccc1CNc1ccc(-c2nc(-c3ccco3)no2)cc1[N+](=O)[O-]
 : 21% | -6%
Cc1ccc(CNC(=O)Nc2c(NC3CCCC3)c3ccccc3oc2=O)cc1
 : -4% | 3%
COc1ccc2nc(/C(C#N)=C\c3ccco3)[nH]c2c1
 : 191%[activator] | 51%[activator]
Cc1ccc(Cl)cc1NC(=O)N1CCC2(CC1)Oc1ccccc1C(=O)N2Cc1ccccc1F
 : 0% | -15%
CC(C)C(=O)Nc1ccc(Cl)c(Cl)c1
 : 3% | -16%
O=C(Cn1ncc2c3ccccc3n(Cc3ccc(Cl)cc3)c2c1=O)NCCC1=CCCCC1
 : -11% | -10%
CCc1ccccc1NC(=O)c1cn(C)c(=O)c2ccccc12
 : -10% | 11%
O=S(=O)(c1cc(Cl)ccc1Cl)N1CCN(c2nnnn2-c2ccccc2)CC1
 : 0% | -3%
O=C(COc1ccccc1)Nc1nc(-c2ccc(S(=O)(=O)N3CCCC3)cc2)cs1
 : -1% | -3%
CC1CCc2c(sc(/N=C/c3ccc(C(C)(C)C)cc3)c2C#N)C1 (stereo not given)
 : 44%[activator] | 20%

Random excerpt: three compounds from above, in no set order.
Value order – StopGo FLuc | StopGo RLuc
Cc1ccc(Cl)cc1NC(=O)N1CCC2(CC1)Oc1ccccc1C(=O)N2Cc1ccccc1F
 : 0% | -15%
COc1ccccc1CNc1ccc(-c2nc(-c3ccco3)no2)cc1[N+](=O)[O-]
 : 21% | -6%
O=C(COc1ccccc1)Nc1nc(-c2ccc(S(=O)(=O)N3CCCC3)cc2)cs1
 : -1% | -3%

(listing goes on)
Value order – StopGo FLuc | StopGo RLuc
Cc1cccc(C(=O)NCc2ccc(C)s2)n1
 : 14% | 26%
Cc1cc(CN2CCN(c3cccc(C)c3C)CC2)cs1
 : -5% | -11%
CCOc1ccc(CC(=O)Nc2c(C(=O)c3ccc(C)cc3)oc3ccccc23)cc1OCC
 : -2% | 0%
C=C(C)C(=O)OC[N+](C)(C)CCOC(=O)C(O)(c1ccccc1)C1CCCC1 (stereo not given)
 : 23% | -8%
COc1cc2c(cc1OC)C(c1ccc(Cl)c(Cl)c1)C1=C(CCCC1=O)N2 (stereo not given)
 : -7% | 17%
COc1ccc(OC)c(NC2=C(c3ccccc3)C(=O)c3ccccc32)c1
 : 0% | 1%
NC(=O)COC(=O)c1cc(-c2cccs2)nc2ccccc12
 : 5% | -6%
CCOc1cc(C#N)c(NC(=O)c2ccc3c(c2)OCO3)cc1OCC
 : 2% | -4%
Cc1ccc2oc(C(=O)Nc3c(C)cccc3C)cc(=O)c2c1
 : 5% | -4%
COc1cc2nc(CSCC(=O)NCCC(C)C)[nH]c(=O)c2cc1OC
 : 7% | 2%
O=C(Cn1c(SCc2ccccc2F)nc2ccncc21)Nc1ccccc1C(F)(F)F
 : 67% | 5%
Cc1cccc(-c2cccc3c4c([nH]c23)[C@@H]2C[C@H]3[C@@H](CN2CC4)[C@H](C)ON3C)c1
 : -1% | -15%
CCCCCOC(=O)CSc1nc2c(c(=O)[nH]c(=O)n2C)n1Cc1ccc(Cl)cc1
 : -9% | -9%
CN1CCc2nc3sc(C(=O)Nc4ccccc4C(F)(F)F)c(N)c3cc2C1
 : 14% | -33%
CC1CCC2(CC1)NC(=O)N(NC(=O)CCc1c[nH]c3ccccc13)C2=O (stereo not given)
 : 0% | -11%

Carrying on:
Value order – StopGo FLuc | StopGo RLuc
CCN(CC)Cc1cc(C(=O)O)co1
 : 1% | 1%
CCCc1nc2ccccc2c(C(=O)OCC(N)=O)c1CC
 : 4% | -1%
Cc1c(CC(=O)O)c(=O)oc2cc(OCc3ccccc3F)ccc12
 : 3% | -2%
CCOc1ccc(NCc2nc3ccccc3n2CCOc2ccc(C)cc2)cc1
 : -22% | ?
CCCC(=O)N(c1ccc2oc3c(c2c1)CCCC3)S(=O)(=O)c1ccc(CC)cc1
 : 1% | 10%
O=C1c2ccccc2C(=Cc2ccsc2)c2ccccc21
 : 96%[activator] | -17%
CCCSc1nc(-c2ccc(OC)cc2)cc(-c2ccccc2OC)c1C#N
 : -5% | -6%
O=C(Nc1ccc(Cn2cncn2)cc1)c1csc(NCc2ccccc2)n1
 : ? | ?
COc1ccc(NCC(=O)NC(C)(C#N)C(C)C)cc1Cl (stereo not given)
 : -5% | -1%
COc1nc2ccccc2nc1N1CCC(C(=O)Nc2ccc(C)c(Cl)c2)CC1
 : 9% | 0%
Cc1ccc(-c2nnc3ccccc3c2C(=O)Nc2ccc(F)cc2)cc1
 : 175%[activator] | -6%
Cc1noc2nc(-c3ccccc3F)cc(C(=O)NCc3ccccc3)c12
 : 14% | 9%
CSc1ncc(C(=O)Nc2ccccc2C(=O)c2ccccc2)c(C(F)(F)F)n1
 : -17% | 22%
O=C(OCC(=O)N1CCc2ccccc21)c1cc([N+](=O)[O-])ccc1Cl
 : 28% | 40%[activator]
Cc1cccc(NC(=O)CSc2ncc(-c3ccccc3)[nH]2)c1C
 : 172%[activator] | 42%[activator]

Carrying on.
Value order – StopGo FLuc | StopGo RLuc
CCOC(=O)c1ccc(NC(=O)NCCOCCn2c(=O)oc3ccccc32)cc1
 : ? | ?
CC(=O)N1CCCc2cc(S(=O)(=O)N(C)CC(=O)Nc3cccc(Cl)c3C)ccc21
 : -36% | 0%
Cc1ccc(Cl)cc1N(C)C(=O)c1cnc(N2CCOCC2)c2ccccc12
 : 1%&-28% | 12%&-13%
Cn1c(=O)[nH]c(=O)c2c1nc(N1CCN(CC(N)=O)CC1)n2Cc1ccccc1
 : 13% | -3%
COc1ccc(-c2nc(CCNC(=O)c3cc(OC)c(OC)c(OC)c3)cs2)cc1
 : -6% | 10%
CN1CCN(c2nc3c(c(=O)n(C)c(=O)n3C)n2CC(=O)c2ccc(Cl)cc2)CC1
 : -13% | -7%
O=C(COc1ccc2c(-c3ccc(F)cc3)noc2c1)OCc1ccccc1
 : 2.8µM* | 1%
NC(=O)C1CCN(C(=O)C2CCN(S(=O)(=O)Cc3ccccc3Cl)CC2)CC1
 : 16% | 12%
Cc1ccc(S(=O)(=O)N2CCC(C(=O)NCc3ccccc3Cl)CC2)cc1
 : -17% | 7%
Cc1ccc2c(c1)OC=CC(C(=O)Nc1ccc3oc(=O)ccc3c1)=C2
 : 6% | -5%
COc1ccc(/C=C(/C#N)c2ccccc2F)c(OC)c1
 : 59%[activator] | 91%[activator]
O=C(O)CC1(Cc2nc3ccccc3s2)CCCC1
 : 54%[activator] | -6%
COc1cccc(NC(=O)Cc2c(Cl)cccc2Cl)c1
 : 27% | 1%
Cc1ccc(NC(=O)Cc2n[nH]c(=O)c3ccccc23)cc1F
 : 118%[activator] | 49%
Cc1ccc(Nc2nc(-c3ccccc3)c(C(=O)Nc3cccnc3)s2)c(C)c1
 : 113%[activator] | 25%

Next results follow.
Value order – StopGo FLuc | StopGo RLuc
CCn1c(C(=O)NC2CCN(CC(=O)NC3CC3)CC2)cc2ccccc21
 : -7% | -7%
Cc1nc2c3c(C)c(C)n(Cc4cccnc4)c3ncn2n1
 : 2% | -4%
N#CCc1ccc(NC(=O)CNc2cccc(Br)c2)cc1
 : 36%[activator] | 70%[activator]
CCn1cc(C(=O)NCCN(CC(C)C)CC(C)C)c(=O)c2cc(S(=O)(=O)N(C)C3CCCCC3)ccc21
 : -1% | -12%
CN(C)CCc1c[nH]c2cccc(OP(=O)(O)O)c12
 : 21%[22.9 µM] | -8%[114 µM]
Cc1cc(-c2ccc(S(=O)(=O)Nc3ccc(Br)c(C)c3)s2)on1
 : -3% | 193%[activator]
CCCOC(=O)c1cn(C)nc1S(=O)(=O)N1CCSCC1
 : 2% | -1%
O=C(CCC1CCCC1)N1CCN(c2nc3ccccc3o2)CC1
 : 13% | -6%
COC(=O)[C@H](CC(C)C)N1Cc2nnn(Cc3ccccc3)c2-c2cc(F)ccc2S1(=O)=O
 : -2% | 210%[activator]
COCC(=O)N1CCN(Cc2nc(C(C)C)no2)CC1
 : 0% | 20%
Cc1cccn2c(=O)cc(COc3cccc(NC(=O)COc4ccc(F)cc4)c3)nc12
 : 2% | -2%
CN(CC(=O)Nc1ccc(Cl)c(Cl)c1)S(=O)(=O)Cc1ccc(F)cc1
 : -3% | 64%[activator]
Cn1c(=O)n(CCc2ccccc2)c(=O)c2c1nc1n2CCN1c1ccc(Cl)cc1
 : -1% | -9%
COc1ccc(-c2c(C)oc3cc(OCCN4CCC(C)CC4)ccc3c2=O)cc1
 : 8% | -4%
CCC(=O)N1c2ccccc2CC1C(=O)NCc1ccc(OC(C)C)cc1 (stereo not given)
 : -11% | -12%

Remaining list, next part.
Value order – StopGo FLuc | StopGo RLuc
NC(=O)COC(=O)c1ccc(C2Nc3ccccc3S(=O)(=O)N2)cc1 (stereo not given)
 : -6% | -9%
CCOc1nc2ccccc2nc1N1CCC(C(=O)NCc2ccc(C)cc2)CC1
 : 7% | 2%
Cc1ccc(Cn2nc(C)c3cc(C(=O)N4CCN(CC(=O)N(C)C)CC4)sc32)cc1
 : 24% | 19%
O=C(NCCN1CCCCC1)c1ccc(Cn2c(SCc3cccc(F)c3)nc3cccnc32)cc1
 : -9% | 22%
CCOC(=O)c1cnc2ccccc2c1N1CCC(C(N)=O)CC1
 : -3% | -3%
CCC(C)NC(=O)c1ccc(CNC(=O)C2CCCCC2)cc1 (stereo not given)
 : 22% | -9%[1.06 µM]
O=C(NCCN1CCOCC1)c1cc(-c2ccc(Cl)s2)nc2ccccc12
 : 4% | 14%
CC(C)c1cnc2c(c1SCc1cccc(C(F)(F)F)c1)c(=O)n(C)c(=O)n2C
 : -8% | -9%
CNC(=O)c1ccc(C2Nc3cc(C(F)(F)F)ccc3S(=O)(=O)N2)cc1 (stereo not given)
 : 9% | 2%
CCN(CC)Cc1ccc(CNC(=O)c2ccc(Br)cc2F)cc1
 : 10% | -5%
CC(=O)c1ccc(C(=O)Nc2nc3ccc(S(=O)(=O)N(C)C)cc3s2)cc1
 : 15% | 60%[activator]
CC(C)c1ccc(OCC(=O)NCCS(=O)(=O)N2CCN(c3ccc(F)cc3)CC2)cc1
 : -12% | -6%
O=C(CSc1nnc(Nc2cccc(F)c2)s1)Nc1ccnn1C1CCCC1
 : ? | ?
Cc1ccc(-c2nn(-c3ccc(F)cc3)c3c2cnc2cc(F)c(F)cc23)cc1
 : -4% | -8%
O=C(O)CCCc1ccncc1
 : 20% | 16%

Next section.
Value order – StopGo FLuc | StopGo RLuc
CC1CCCCC1NC(=O)C1(c2ccccc2)CCC1 (stereo not given)
 : 16% | 17%
O=C1N(Cc2cccc(C(F)(F)F)c2)c2ccccc2S(=O)(=O)N1c1cccc(Cl)c1
 : -4% | 31%[activator]
Cc1ccc2oc(=O)n(CCNC(=O)Nc3ccccc3C)c2c1
 : -14% | 4%
COc1ccc(OC)c(-c2cc(C(=O)Nc3cnn(Cc4ccc(Cl)cc4Cl)c3)no2)c1
 : -5% | -2%
COc1ccc(C2C=C(c3ccccc3)Nc3nc(NC(C)=O)nn32)cc1 (stereo not given)
 : 20%&10% | 16%&-1%
Cc1ccc(NC(=O)c2oc3ccc(S(=O)(=O)N4CCC5(CC4)OCCO5)cc3c2C)cc1Cl
 : 1% | -11%
CCC(=O)Nc1ccc(-c2csc(NC3CC3)n2)cc1
 : 45%[activator] | 13%
NNc1ccc(Cc2ccc(NN)cc2)cc1
 : 0% | 7%
O=C(CCc1ncc(-c2ccc(F)cc2)o1)NCc1cccc(Cl)c1
 : 38%[activator] | 5%
CC(Oc1ccc(-c2ccccc2)cc1)C(=O)NC(C)(C#N)C(C)C (stereo not given)
 : 0% | 10%
Nc1cc(Cl)ccc1Sc1ccccc1
 : 14% | -10%
COc1ccc2oc(=O)c(-c3cn4c(n3)sc3cc(OC)ccc34)cc2c1
 : -5% | -10%
CCOc1cccc(C(=O)Nc2ccc(OCC)c3ncccc23)c1
 : 57%[activator] | -2%
CCC(=O)NCCSCc1ccsc1
 : 25% | 4%
Cc1c(O)ccc2c(CN3CCN(c4ccccc4F)CC3)cc(=O)oc12
 : 6%&-1% | 2%&-12%

(list continues)
Value order – StopGo FLuc | StopGo RLuc
O=C(NC1CCCCC1)c1cc2cc(Cl)ccc2[nH]1
 : 94%[activator] | 11%
CCCCN(CC)C(=O)c1ccc2c(c1)NC(=O)c1ccccc1S2
 : -11% | -1%
Cc1oc(-c2cccs2)nc1CC(=O)N1CCN(CC(=O)N2CCCCC2)CC1
 : 9% | -4%
Cc1cc(C(=O)OCC(=O)Nc2c(C)cccc2C)c2ccccc2n1
 : 26% | 16%
CC(C)NC(=O)/C(C#N)=C\c1cccc(/C=C(/C#N)C(=O)NC(C)C)c1
 : 28µM* | -34%
CSc1ccc(CCNC(=O)Cn2ccc3cc(S(=O)(=O)N4CCCCCC4)ccc32)cc1
 : -15% | 0%
CC1N(O)C(C)(C)C(c2ccc(Cl)cc2)=[N+]1[O-] (stereo not given)
 : 14% | 12%
O=C(O)c1ccc(NC2=CC(c3ccccc3)N(c3ccc(C(=O)O)cc3)C2=O)cc1 (stereo not given)
 : -10% | -11%
Cc1cc(Cl)ccc1NC(=O)Cc1c[nH]c2ccccc12
 : 7% | 4%
